Assay outcomes as filed in PubChem BioAssay.
GALR2 ag: activates the human galanin receptor 2. O43603. GALR2-expressing cells, agonist activation read-out. activation, %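 (tested at 5 µM)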. 0.48% of 140,000 active;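 active = above mean plus 3 SD of all compounds, about 5% in these data, not always enough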;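 note: 0% = vehicle buffer wells and 100% = reference agonist at full effect; tested in CHO reporter cells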
Target sequence (O43603 whole entry, looked up): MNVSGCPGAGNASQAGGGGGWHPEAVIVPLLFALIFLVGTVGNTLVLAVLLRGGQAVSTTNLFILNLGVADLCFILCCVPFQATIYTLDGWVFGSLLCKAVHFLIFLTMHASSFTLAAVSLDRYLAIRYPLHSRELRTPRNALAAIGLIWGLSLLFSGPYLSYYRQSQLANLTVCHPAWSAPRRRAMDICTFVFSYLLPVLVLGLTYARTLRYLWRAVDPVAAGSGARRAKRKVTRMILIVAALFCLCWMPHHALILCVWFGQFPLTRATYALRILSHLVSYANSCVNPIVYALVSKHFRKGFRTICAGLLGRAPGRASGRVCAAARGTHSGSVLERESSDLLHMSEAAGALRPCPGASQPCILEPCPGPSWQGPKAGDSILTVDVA
PKD1 kinase inh: PKD1 (human) kinase inhibition; PKD1 kinase fluorescence polarization assay; inhibition, %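 (about 10 µM by stock and volumes)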; 0.056% of 200,000 active; AID 797;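 active = inhibition of 50% or more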;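 note: controls were vehicle for no effect and a reference inhibitor for full effect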
HSV replic up: increases HSV replication in cells. HSV replication augmentation in cells, fold increase. maximum fold increase. 0.005% of 220,000 active;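 active = peak rise of 1.5-fold or more in the series; tested in PC3 cells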;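 note: first round at 10 µM; read as green reporter fluorescence; hits show the peak of a series up to 25 µM; 1 = signal of infected wells without compound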
INS promoter inh: TRM-6 insulin promoter activity inhibition | TRM-6 cells (human fetal islet line), insulin promoter-eGFP reporter, imaging; reporter expression induced with tamoxifen | inhibition, % at 2 µM | 0.9% of 130,000 active | AID 1273;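 active = inhibition above the mean plus 3 SD, with well images judged a real hit on visual review, cut at about 60% in these data, passing the limit was not always enough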
RGS16-Gao: regulators of human RGS16-Galphao interaction. bead-based flow cytometry RGS16-Galphao binding, fluorescence; actives lie on both sides. 0.38% of 220,000 active. binding response (% of control), % at 10 µM. AID 1441;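 active = below 25% or above 175%, edge rows of some plates excepted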;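 note: Galphao activated by GDP with aluminum fluoride before binding; 100% = wells without compound and 0% = beads without RGS; some results beyond the cut were filed as inactive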
Target sequence (O15492 whole entry, looked up): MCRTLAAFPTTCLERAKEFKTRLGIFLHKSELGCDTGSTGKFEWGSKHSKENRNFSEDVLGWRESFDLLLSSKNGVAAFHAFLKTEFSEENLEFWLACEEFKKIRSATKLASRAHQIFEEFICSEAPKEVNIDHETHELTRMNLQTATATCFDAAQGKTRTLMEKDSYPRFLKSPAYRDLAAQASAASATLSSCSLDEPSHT
Target sequence (P09471 whole entry, looked up): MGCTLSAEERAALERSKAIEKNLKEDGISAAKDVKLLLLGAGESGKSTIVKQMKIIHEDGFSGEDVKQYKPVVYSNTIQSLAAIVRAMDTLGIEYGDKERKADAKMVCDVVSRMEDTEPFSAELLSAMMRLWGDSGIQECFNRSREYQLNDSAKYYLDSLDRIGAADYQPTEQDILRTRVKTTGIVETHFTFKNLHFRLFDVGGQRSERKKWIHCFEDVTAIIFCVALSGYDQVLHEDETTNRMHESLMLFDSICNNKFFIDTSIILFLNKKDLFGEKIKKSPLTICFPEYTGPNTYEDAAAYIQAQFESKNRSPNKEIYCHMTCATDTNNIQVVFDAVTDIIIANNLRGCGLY
INS promoter inh cell count: second read-out of INS promoter inh, no call of its own (marks repeat the call); normalized cell count, %; measured here: cell count, toxicity; reference of the scale not given here;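 cells exposed to compound for 48 h; stained nuclei by imaging scaled within each plate; lower means fewer cells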
HSV replic up primary fold: second read-out of HSV replic up, no call of its own (marks repeat the call); fold increase; compound at 10 µM; measured here: primary screen fold increase 10 uM; tested in PC3 cells;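 GFP signal in the first replicate; 1 = infected wells without compound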
The depositor's hits bear a star; i = inactive; x = not tested or not shown.

Sequence of screens – GALR2 ag	PKD1 kinase inh	HSV replic up	HSV replic up primary fold	INS promoter inh	INS promoter inh cell count	RGS16-Gao
- Cc1cc(C)n(C(=O)c2ccc(C)o2)n1
    0.1	2	i	0.97	7	136	101
- CCCN(CCC)c1ncnc2c1cnn2-c1ccc(OC)cc1
    1.4	-8	i	0.93	-4	167	102
- CCCCNc1nc2c(S(=O)(=O)c3ccccc3)nnn2c2ccccc12
    x	-7	i	1	x	x	99
- CCOC(=O)Cc1csc(NC(=O)CSc2ncnc3c2cnn3-c2ccc(OC)cc2)n1
    12*	-1	i	0.92	19	98	92
- Cc1ccc(Cl)cc1N1CCN(C(=O)Cc2ccc(-n3c(=O)[nH]c4ccsc4c3=O)cc2)CC1
    0.1	-5	i	0.74	4	126	103
- CC(=O)Oc1ccc(Nc2ccccc2)cc1
    x	4	i	0.74	40	148	107
- CCCCOc1ccc(C(C)NC(=O)CCS(=O)(=O)Cc2ccc(C)cc2)cc1 (centres undefined)
    1.1	-7	i	0.96	10	89	88
- O=C(CSc1nnc(-c2ccccc2)o1)NC1CCCCC1
    -1.8	1	i	0.96	17	100	105
- O=[N+]([O-])c1cc(C(F)(F)F)ccc1N1CCC(O)CC1
    x	-6	i	1.1	x	x	101
- CCCCCCCCCCCC(=O)NC(C(=O)O)C(O)c1ccccc1 (centres undefined)
    x	4	i	0.94	x	x	97
- Cc1cccc(N2CCN(CC(=O)NCC3CCCCC3)CC2)c1C
    -0.2	-1	i	1	x	x	102
- CCOC(=O)C1CCCN(C(=O)c2ccc(CS(=O)(=O)c3ccc(Br)cc3)o2)C1 (centres undefined)
    -0.8	-14	i	1	x	x	93
- CCCC(=O)N(Cc1cc2cccc(C)c2[nH]c1=O)c1ccccc1OC
    2.4	-11	i	0.77	44	114	104
- Cn1c(=O)n(C)c2cc(S(=O)(=O)N3CCN(c4ccccc4)CC3)ccc21
    x	x	i	1	x	x	97
- CC(NC(=O)COC(=O)Cc1ccsc1)C1CC2CCC1C2 (centres undefined)
    -1.8	-7	i	0.96	27	96	-28
- Cc1[nH]c(=O)c(C#N)c2c1COC(C)(C)C2
    x	5	i	1.1	x	x	99
- CC(C)C(=O)Nc1ccc(C(=O)Nc2ccc(Br)cc2F)cc1
    x	2	i	0.89	62	102	99
- CC(NC(=O)Nc1ccccc1O)(C(F)(F)F)C(F)(F)F
    -1.9	-6	i	0.99	-148	116	101
- Cc1[nH]n(-c2ccc([N+](=O)[O-])cc2)c(=O)c1C=NCCN1CCN(C(=O)c2ccccc2)CC1
    -0.9	-1	i	0.98	38	95	103
- CCOC(=O)/C(=C/c1ccc(OC(=O)c2ccncc2)cc1)C(C)=O
    x	-7	i	0.96	47	115	102
- COC(=O)c1ccc(CSc2nnc(C)s2)cc1
    -1.8	-13	i	0.97	11	67	100
- CC(C)CCSc1nc2c(c(=O)[nH]c(=O)n2C)n1CCCc1ccccc1
    -3.0	-3	i	0.89	x	x	107
- Cc1cnc(C(=O)Nc2nnc(C)s2)cn1
    -2.4	7	i	1	-50	72	102
- COC(=O)C1=C(C)N(c2ccc(Br)cc2)C(=O)/C1=C\c1ccco1
    -0.7	3	i	1.1	x	x	81
- Cc1cc2nc(C(F)(F)F)cc(-c3cccs3)n2n1
    x	6	i	0.96	x	x	104
- CC(NS(=O)(=O)c1ccccc1)C(c1cccs1)N1CCN(C)CC1 (centres undefined)
    0.7	-10	i	0.97	-3	64	102
- Cc1cccc(NC(=S)NC23CN4CN(CN(C4)C2)C3)c1C
    x	-2	i	0.99	43	105	117
- CS(=O)(=O)N(CC(=O)NCC1CCCO1)c1ccc(Cl)c(Cl)c1 (centres undefined)
    -0.8	-3	i	0.7	-14	95	100
- Cn1c(=S)ccc2ccccc21
    x	1	i	0.98	0	121	102
- CCOc1ccccc1NC(=S)N1CCN(c2nc(-c3ccc(F)cc3)cs2)CC1
    x	2	i	0.97	-5	107	100

Other structures:
Sequence of screens – GALR2 ag	PKD1 kinase inh	HSV replic up	HSV replic up primary fold	INS promoter inh	INS promoter inh cell count	RGS16-Gao
- O=C(CN1CCOCC1)NCc1ccccc1
    1.6	-4	x	x	16	79	98
- CNC(=S)N=Nc1c(O)[nH]c2ccc(C(C)C)cc12
    0.1	-9	i	0.88	x	x	107
- Cc1ccc(SCC(=O)NCc2ccncc2)cc1
    -1.8	7	i	0.98	-3	93	99
- COC(=O)CSc1nnc(SCc2ccc(OC)cc2)s1
    -0.5	2	x	x	-26	103	102
- CCN(CC)S(=O)(=O)c1ccc(-c2nnc(SCc3nnc(-c4ccc(C)cc4)o3)n2CC)cc1
    -1.3	-3	i	1	0	117	102
- C=CCn1c(SC(C)C(=O)NCCC2=CCCCC2)nc2ccccc2c1=O (centres undefined)
    -0.7	1	i	0.92	31	150	99
- CCOC(=O)C1=C(N)Oc2cc(O)ccc2C1c1cccnc1 (centres undefined)
    -1.0	-1	i	0.97	-17	54	105
- CCOc1ccc2nc(NC(=O)c3cc([N+](=O)[O-])ccc3N3CCOCC3)sc2c1
    -0.5	2	i	0.68	-46	125	103
- COc1ccc(OC)c(NC(=O)c2c3c(nc4ccccc24)CCC3)c1
    -1.1	-3	i	0.77	-25	101	110
- CCn1cc(C(=O)NC2CCCCC2C)c(=O)c2ccc(C)nc21 (centres undefined)
    0.0	8	i	0.97	x	x	103
- CN(C)c1cccc(C(=O)NCC2CCCO2)c1 (centres undefined)
    -3.6	-9	i	0.98	-12	100	92
- Cc1cc(C)n2c(SCCC(C)C)nnc2n1
    -0.8	-10	i	0.93	8	55	119
- Cc1onc(-c2c(Cl)cccc2Cl)c1C(=O)Nc1nc(C(C)(C)C)cs1
    x	x	i	0.92	x	x	103
- CSc1nc2ccc(S(=O)(=O)Nc3c(C)n(C)n(-c4ccccc4)c3=O)cc2s1
    1.4	5	i	0.88	28	91	100
- COc1ccc(OC)c(NC(=O)CCNS(=O)(=O)c2ccc3c(c2)oc(=O)n3C)c1
    -2.3	0	i	0.94	7	125	99
- CCOC(=O)C1=C(C)N(c2ccc(C)cc2)C(=O)/C1=C\c1ccc(O)c(OC)c1
    x	x	i	0.91	x	x	75
- CCCCC(CC)CNC(=O)c1[nH]c(C)c(C(C)=O)c1C (centres undefined)
    -1.5	4	i	0.95	x	x	99
- O=S1(=O)CCN2C(=N1)Sc1c2ccc2c1CCCC2
    0.3	-9	i	0.79	-44	40	101
- NC(N)=N/N=C/c1ccc(OCc2ccc(Cl)cc2Cl)cc1
    0.2	-5	i	0.49	-42	100	101
- CCCCS(=O)(=O)NC1=NCN(CC)CN1
    0.2	-17	i	0.94	9	111	107
- CCOC(=O)C(C)Oc1cc(Cl)c(C=O)cc1OC (centres undefined)
    x	4	i	1	5	142	104
- CC(=O)Nc1sc2c(c1C(c1cccc(Cl)c1)N1CCN(CCO)CC1)CCCC2 (centres undefined)
    x	0	i	0.94	x	x	102
- Cc1ccccc1C(=O)c1cccn1CC(=O)NCCCN1CCc2ccccc2C1
    x	-3	i	0.96	x	x	100
- Cc1ccc(NC(=O)C2CC(=O)N(Cc3ccco3)C2)cc1 (centres undefined)
    x	x	i	1	x	x	88
- Cn1c(NC(=O)C[n+]2cc(-c3ccc(Cl)c(Cl)c3)n3c2CCC3)cc(=O)n(C)c1=O
    -0.5	2	i	0.97	-17	129	102
- CCOc1ccc(NC(=S)Nc2ccc(OC(F)(F)F)cc2)cc1
    -2.2	-3	i	0.93	x	x	100
- CC1(C)OC(=O)C(=CNCC(O)c2ccccc2)C(=O)O1 (centres undefined)
    -1.2	-3	i	0.9	25	167	100
- O=C(Nc1c(C(=O)Nc2cccc(F)c2)oc2ccccc12)c1ccc2c(c1)OCO2
    -2.4	8	i	0.81	25	176	100
- O=[N+]([O-])c1ccc(OS(=O)(=O)Cc2ccccc2)cc1
    x	0	i	0.96	x	x	152
- CC(C)(C)NC(=O)C(c1c[nH]c2ccccc12)N(C(=O)Cn1nnc(-c2ccc(Cl)cc2)n1)c1ccccc1F (centres undefined)
    0.0	-1	i	0.78	11	90	105

In another format: entries from further up.
Cc1ccc(NC(=O)C2CC(=O)N(Cc3ccco3)C2)cc1 (centres undefined)
- GALR2 ag: x
- PKD1 kinase inh: x
- HSV replic up: i
- HSV replic up primary fold: 1
- INS promoter inh: x
- INS promoter inh cell count: x
- RGS16-Gao: 88
Cn1c(NC(=O)C[n+]2cc(-c3ccc(Cl)c(Cl)c3)n3c2CCC3)cc(=O)n(C)c1=O
- GALR2 ag: -0.5
- PKD1 kinase inh: 2
- HSV replic up: i
- HSV replic up primary fold: 0.97
- INS promoter inh: -17
- INS promoter inh cell count: 129
- RGS16-Gao: 102
CCOc1ccc(NC(=S)Nc2ccc(OC(F)(F)F)cc2)cc1
- GALR2 ag: -2.2
- PKD1 kinase inh: -3
- HSV replic up: i
- HSV replic up primary fold: 0.93
- INS promoter inh: x
- INS promoter inh cell count: x
- RGS16-Gao: 100
CC1(C)OC(=O)C(=CNCC(O)c2ccccc2)C(=O)O1 (centres undefined)
- GALR2 ag: -1.2
- PKD1 kinase inh: -3
- HSV replic up: i
- HSV replic up primary fold: 0.9
- INS promoter inh: 25
- INS promoter inh cell count: 167
- RGS16-Gao: 100

(more compounds)
Sequence of screens – GALR2 ag	PKD1 kinase inh	HSV replic up	HSV replic up primary fold	INS promoter inh	INS promoter inh cell count	RGS16-Gao
- CCc1nnc(NC(=O)c2ccc(NS(=O)(=O)c3ccccc3)cc2)s1
    -1.4	-8	i	0.94	x	x	113
- CCOC(=O)C(C)Sc1ccc2nnc(-c3ccc(F)cc3)n2n1 (centres undefined)
    0.4	-4	i	0.98	x	x	103
- Cc1ccccc1CN1CCN(S(=O)(=O)c2cccs2)CC1
    x	0	i	1	x	x	100
- CCC1CCCCN1CCNS(=O)(=O)c1ccc2c(c1)oc(=O)n2C (centres undefined)
    -0.9	-7	i	0.95	x	x	111
- O=C(/C=C/NNC(=O)c1cccc(Br)c1)c1cccc(Br)c1
    -2.4	0	i	1.1	x	x	106
- COc1cccc(OC)c1C(=O)NC(=S)NCc1ccccc1
    x	-3	i	0.96	x	x	106
- C/C(=N\O)C(C)(C)Nc1cccc(F)c1
    x	x	i	0.81	x	x	111
- O=C(CS(=O)(=O)c1ccccc1)N1CCc2ccccc21
    x	-2	i	0.88	x	x	97
- NS(=O)(=O)c1ccc(CCNC2CC(=O)N(CCc3ccccc3)C2=O)cc1 (centres undefined)
    -1.3	-1	i	0.96	x	x	94
- COc1ccc(NC(=S)N2CCNC(=O)C2CC(=O)Nc2cccc(Cl)c2C)cc1 (centres undefined)
    -0.8	2	i	0.99	31	79	9.7*
- CC(C)CC1=C/C(=C/c2ccc(-c3ccccc3)o2)C(=O)O1
    -2.5	-1	i	1.2	50	76	86
- Cc1ccc(/C=C2/NC(=O)N(Cc3ccccc3)C2=O)o1
    -1.2	-16	i	1.1	3	110	77
- COc1cc(C(=O)N2CCN(C(=O)Cc3ccccc3)CC2)cc(OC)c1OC
    0.0	-17	i	0.87	x	x	102
- O=C(Nc1ccc(Br)cn1)c1ccc([N+](=O)[O-])o1
    x	0	i	0.74	-76	68	99
- CCCNc1nc(-c2ccccc2)c(C(=O)OCC)cc1C#N
    -1.6	23	i	0.47	-66	77	120
- Cc1ccc(N=Cc2ccc(N(C)C)cc2)cc1
    0.2	-7	i	0.92	-43	117	99
- Cc1cc2c(NC(=O)CCCC(=O)O)cccc2nn1
    x	x	i	1.1	x	x	98
- Cc1cccc(NC(=S)N2CCN(c3cc(C)ccc3C)CC2)c1
    -0.6	5	i	0.94	-3	55	143
- COc1cc(/C=C/C(=O)NC(C)(C)C)ccc1OCc1ccccc1
    -0.6	-4	i	0.96	-64	99	104
- N=c1c2c(n(Cc3ccc(Cl)c(Cl)c3)c3c1CCC3)CCCC2
    -1.0	10	i	0.65	x	x	103
